VDR inh: blocks the human vitamin D receptor. P11473. VDR-SRC2-3 peptide fluorescence polarization, 2 h. Potency, µM, without a hit: max response, negative = inhibition, actives largely listed as inhibitors. actives 0.93% (n = 400,000); active = well fitted inhibition curve with a large enough effect; inconclusive = small, poorly fitted or top-dose-only effect, or another doubt; inactive = no such curve, though single readings can be large or run the other way; note: series mostly up to about 120 µM
Target sequence (P11473 whole entry, looked up): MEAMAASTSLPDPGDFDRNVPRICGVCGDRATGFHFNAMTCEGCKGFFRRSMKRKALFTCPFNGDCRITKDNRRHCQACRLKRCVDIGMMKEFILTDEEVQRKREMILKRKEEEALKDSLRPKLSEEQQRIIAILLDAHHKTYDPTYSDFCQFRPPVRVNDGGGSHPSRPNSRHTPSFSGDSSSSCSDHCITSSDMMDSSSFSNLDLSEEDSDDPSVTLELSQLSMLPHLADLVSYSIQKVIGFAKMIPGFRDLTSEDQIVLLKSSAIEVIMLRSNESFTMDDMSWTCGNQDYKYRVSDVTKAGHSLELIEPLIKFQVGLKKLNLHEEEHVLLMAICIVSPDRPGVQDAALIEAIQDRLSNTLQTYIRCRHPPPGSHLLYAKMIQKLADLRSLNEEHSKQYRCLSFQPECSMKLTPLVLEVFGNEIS
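FP read-out; VDR + SRC2-3 coactivator peptide; 23 nl compound by pintool; 2 h RT incubation; reagents held at 4 deg C, protected from light.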
* marks the source's active call; other numbers are inactive results; ? = inconclusive; & = joins results of further samples. % is set by controls: 0 for no effect and ±100 for the full control effect; potency is the fitted concentration of half-maximal effect. These rows are one share of the data; rates above refer to the full screens.

SMILES	VDR inh
O=C(NC(=O)c1ccc(F)cc1F)Nc1ccc(Cl)cc1	-11%
CCOC(=O)c1csc(NC(=O)C2CCCCC2)n1	-6%
O=C(Nc1cccc(-c2nc3ccccc3s2)c1)c1cccs1	-3%
O=C(c1ccc(O)cc1)c1ccc(Cl)cc1	-10%
COc1ccc(N2C(=O)CC(c3ccccc3)C2=O)cc1 (centres undefined)	-1%
CCc1ccc(N2CN(Cc3ccco3)CNC2=S)cc1	1%
Cc1nc2c(-c3ccccc3)c(C)[nH]n2c(=O)c1Cl	-12%
O=NNc1nc2ccccc2n1Cc1ccccc1	-11%
CC(C)(C)c1ccc(C(=O)Nc2ccc(O)c3c(=O)cc(-c4cccc(Cl)c4)oc23)cc1	-13%
Cc1ccc(N(CC(=O)Nc2ccc(Cl)cc2)S(=O)(=O)c2cccc3nonc23)cc1	-2%
Cc1ccccc1OCC(=O)Nc1ccc(OCc2cc(=O)n3ccccc3n2)cc1	4%
O=C(c1nn2c(C(F)(F)F)cc(-c3ccc(F)cc3)nc2c1Cl)N1CCOCC1	-4%
CSc1ccc(CN2CCC(N3CC(C)OC(C)C3)CC2)cc1 (centres undefined)	-24%
O=C(c1ccco1)N1CCN(C(c2cccs2)c2nnnn2C2CCCC2)CC1 (centres undefined)	-11%
CCOc1ccc(OCCC(=O)OCC(=O)NC2CCCC2)cc1	-21%
CCOC(=O)C1=C(C)NC(=O)NC1c1cc(Br)c(O)c(OC)c1 (centres undefined)	-2%
Brc1cc(Br)cc(CN2CCSCC2)c1	-2%
Cc1csc2c(N3CCC(C(=O)O)CC3)ncnc12	4%
O=C(NCC1CCCCC1)c1ccc([N+](=O)[O-])cc1	-14%
Cc1ccc(S(=O)(=O)c2nc(-c3ccccc3)oc2NCc2cccnc2)cc1	-13%
Cc1cccc(CN2CCC(N3CC(C)OC(C)C3)CC2)c1 (centres undefined)	-15%
CCCCN1CC(c2nc3ccccc3n2CCCCOc2cccc(C)c2C)CC1=O (centres undefined)	7%
COc1cc(NS(=O)(=O)c2ccc(NC(=O)c3ccc(C(C)=O)cc3)cc2)nc(OC)n1	-1%
Cc1ccc(-n2nnnc2/C=C\Nc2cc(C)on2)cc1	-16%
Cc1ccc(NC(=O)COC(=O)Cn2ccc(=O)[nH]c2=O)cc1C	-3%
COc1ccc(N2CC(NS(=O)(=O)c3cccnc3)CC2=O)cc1 (centres undefined)	22%
CCc1c(C(=O)N/N=C/c2ccsc2)csc1C	10%
CCc1nc2nc(C)cc(Nc3cccc(C)c3C)n2n1	-24%
CCCCc1cc(=O)oc2c(CN(C)C)c(O)ccc12	-5%
Cc1noc(C)c1COc1ccc(C(=O)N2CCCC(C(F)(F)F)C2)cc1 (centres undefined)	-3%
COC(=O)c1scc(-c2ccccc2)c1S(=O)(=O)Nc1ccccc1	-1%
C/C=C/c1ccc(Oc2nnnn2-c2ccc(C(=O)O)cc2)c(OC)c1	16%
OCC[C@@H]1C[C@H](O)[C@@H](O)[C@]2(OCCc3ccccc32)O1	-12%
C=CCSc1nc(-c2ccccc2)c(C#N)c(=O)[nH]1	1%
COc1ccc2cc1Oc1cc3c(cc1OC)CC[N+](C)(C)C3Cc1ccc(cc1)Oc1c(OC)c(OC)cc3c1C(C2)[N+](C)(C)CC3 (centres undefined)	-1%
O=C(COc1ccc(Cl)cc1)NCc1ccc(F)cc1	-23%
Cc1ccc(NC(=O)CSc2nnnn2-c2ccc3c(c2)OCO3)cc1C	12%
COCCNC(=O)c1ccc(Cl)c(S(=O)(=O)Nc2cccc(C)c2C)c1	-4%
Cc1cccn2c(=O)c(/C=C(\C#N)C(=O)NCc3ccco3)c(N3CCC(C(N)=O)CC3)nc12	-1%
Cc1nc(SCC(=O)NC2(C#N)CCCC2)n(CC(C)C)c1C	0%
COCCn1c(C)c(C)c(S(=O)(=O)c2ccccc2)c1N	-8%
C=CCN=C1S/C(=C/c2ccc([N+](=O)[O-])cc2)C(=O)N1CC=C	-1%
CC(C)(C)OC(=O)N1CCN(C(=O)c2[nH]cnc2C(=O)Nc2cccc(Cl)c2)CC1	-15%
CNS(=O)(=O)c1cn(CC(=O)NCc2cccc(OC)c2)cc1S(=O)(=O)NC	-3%
O=C(Nc1ccc(F)cc1)c1csc(Cc2ccccc2)n1	0%
COCCN(CC1CCCN(C2Cc3ccccc3C2)C1)C(=O)CCC(N)=O (centres undefined)	5%
Cc1ccc(/C=C(\C#N)c2nc(-c3ccc(-c4ccccc4)cc3)cs2)cc1	-25%
COc1cc(NC(=O)c2ccccn2)cc(OC)c1OC	?
O=[N+]([O-])c1ccc(Cl)c(S(=O)(=O)Nc2ccc(-c3ccc(N4CCOCC4)nn3)cc2)c1	6%
COc1ccc(NC(=S)NNC(=O)c2cccs2)cc1	-16%
Cc1c(C)n(CCCN(C)C)c2ncnc(Nc3ccccc3)c12	8%
O=C(NCc1ccccc1)C1=C[C@H](C2CC2)C[C@H](OCc2ccc(CO)cc2)O1	-6%
O=C(CN1CCC(C(=O)c2ccc(Cl)cc2)CC1)Nc1ccc2c(c1)OCCO2	-5%
O=C(CNc1ccc(Br)cc1)c1ccc(O)cc1	3%
CN(C(=O)COc1ncnc2ccccc12)C1CCCCC1	-13%
Cc1cc(C)cc(OCC(=O)Nc2ccc(N3CCCCC3)cc2)c1	-5%
CCN(CC)C(=O)Oc1ccc(Br)cc1C(=O)Nc1ccc(F)c(Cl)c1	5%
O=c1c2ccccc2n2nnnc2n1-c1ccccc1	-5%
Oc1ccc(Cl)c2cccnc12	?
O=C(NCc1ccc(F)cc1)N[C@@H](Cc1ccccc1)C(=O)O	-7%

Going on with the list:
SMILES	VDR inh
O=C(NCCc1ccc(Cl)cc1)c1ccc2nc(N3CCOCC3)sc2c1	-4%
COc1ccc(-c2cc(C)no2)cc1S(=O)(=O)Nc1cccc(C(F)(F)F)c1	2%
Cc1ccc(N(CCCCN2C(=O)c3ccccc3C2=O)C(=O)c2cccs2)cc1	7%
COc1ccc(C)cc1N(CC(=O)NC(C)c1ccccc1)S(C)(=O)=O (centres undefined)	-2%
COc1ccccc1OCCOCCN1CCCC1	18%
CC(C)c1ccc(C(=O)N2CCN(CCO)CC2)cc1	-4%
CC(C)(C)NC(=O)N1CCN(c2nc3ccc(Cl)cc3s2)CC1	-13%
O=C(CSc1nc(N2CCCCC2)nc(N2CCCCC2)n1)N1CCN(c2ccccc2)CC1	-10%
CN(CP(=O)(O)C(O)c1ccccc1)S(C)(=O)=O (centres undefined)	1%
CC1CN(C(=O)c2cc(S(=O)(=O)N3CCCC3)c(Cl)cc2Cl)CC(C)O1 (centres undefined)	-16%
Cc1ccc(Nc2cc(-c3ccccc3)nc(C)n2)cc1	1%
COCCN1Cc2cccc(C(=O)Nc3ccc(Cl)cc3Cl)c2C1=O	10%
C=CCn1c(-c2cc(-c3ccccc3)sc2N)n[nH]c1=S	6%
O=C(N/N=C/c1ccc(O)c(O)c1)N/N=C/c1ccc(O)c(O)c1	-28%
CCOC(=O)N1CCN(C(=O)c2cn(CC(C)C)c(=O)c3c2c2ccccc2n3C)CC1	7%
Cc1ccc(C(C)(C)C)c(OCCOCCN2CCCC2)c1	-7%
Cc1ccc(OCC(=O)Nc2ccc(CN3CCOCC3)cc2)cc1C	-1%
COc1cccc(OC)c1C(=O)OCC(=O)NCCCc1ccccc1	4%
CCN(CC)S(=O)(=O)c1ccc(Cl)c(NC2=NCCCCC2)c1	-1%
COc1cccc2cc(C(=O)C3=C(O)C(=O)N(CCN4CCOCC4)C3c3cccs3)oc12 (centres undefined)	-19%
Cc1c(NC(=O)CSc2nnc(-c3cccnc3)n2N)c(=O)n(-c2ccccc2)n1C	13%
Cc1ccc(S(=O)(=O)NCCC(=O)Nc2ccc(C)cc2C(=O)c2ccccc2)cc1	?
Cc1ccc(-c2csc3ncnc(NS(=O)(=O)c4ccc(Cl)cc4)c23)cc1	-5%
COc1cc2cncc(Cc3ccc(Cl)cc3)c2cc1OC	-5%
COc1ccc(C(=O)NCC(=O)N/N=C/c2cccnc2)cc1	13%
COc1ccccc1C(=O)N1CCCC(c2nc(-c3cc(OC)c(OC)c(OC)c3)no2)C1 (centres undefined)	0%
Cc1nc(C(=O)N2CCOCC2)sc1C1(C)CC(c2ccccc2)=NO1 (centres undefined)	-12%
O=C(NC(=S)Nc1cccc(Cl)c1Cl)C1CC1	14%
CCn1cc(CN2CCC(C(=O)Nc3ccc(Oc4cccnc4)cc3)CC2)c(C)n1	-21%
C[C@@H]1O[C@@H](Oc2c(-c3ccc(O)c(O)c3)oc3cc(O)cc(O)c3c2=O)[C@H](O)[C@H](O)[C@H]1O	12%&-12%
COc1ccc(N2C=C3C(=O)C(C)(OC(=O)CCc4ccccc4)C(=O)C=C3C=C2c2ccc(C#N)cc2)cc1 (centres undefined)	-15%
O=C1c2ccccc2C(=O)N1CC#CCN1CCN(C2CCCCC2)CC1	-10%
Cc1ccc(NC(=O)c2cc3nc(-c4ccccc4)cc(-c4ccccc4)n3n2)cc1	-20%
CCCCn1nnnc1NCc1cccnc1	-26%
CN(c1ccccc1)S(=O)(=O)c1cccc(NC(=O)c2cncc(Br)c2)c1	-22%
O=C(COc1cccc(NC(=O)c2cccc([N+](=O)[O-])c2)c1)c1ccc(Br)cc1	3%
Cc1nnc(SCC(=O)NCc2ccccc2Cl)[nH]c1=O	-1%
Cc1ccc(C(=O)OCC(=O)NCc2cccs2)cc1S(=O)(=O)N1CCOCC1	-21%
COCC(=O)N1CCC2(CC1)CCN(c1ncccn1)CC2	0%
Cc1ccc(C(=O)NC(C)c2ccccc2)o1 (centres undefined)	14%
COc1ccc(OCC(=O)NC2CCCN(Cc3ccc(Cl)cc3)C2)cc1 (centres undefined)	1%
CC(C)N(Cc1ccccc1)C(=O)COC(=O)C1CCN(c2ccc(C(F)(F)F)cn2)CC1	-22%
CCn1c(Cc2ccccc2)nnc1SCC(=O)Nc1ccc(OC)cc1	23%
C=C1CC[C@H](O)C/C1=C/C=C1\CCC[C@]2(C)C([C@H](C)CC[C@@H](O)C(C)(C)O)CC[C@@H]12 (some centres undefined)	-2%
CC(C)(C)OC(=O)N/N=C\c1ccc(OC(=O)c2ccco2)cc1	-3%

Exported as comma-separated lines: 5 of the compounds above.
Structure,VDR inh
COc1ccc(OCC(=O)NC2CCCN(Cc3ccc(Cl)cc3)C2)cc1 (centres undefined),1%
C=C1CC[C@H](O)C/C1=C/C=C1\CCC[C@]2(C)C([C@H](C)CC[C@@H](O)C(C)(C)O)CC[C@@H]12 (some centres undefined),-2%
Cc1ccc(C(=O)NC(C)c2ccccc2)o1 (centres undefined),14%
O=C1c2ccccc2C(=O)N1CC#CCN1CCN(C2CCCCC2)CC1,-10%
COc1ccc(N2C=C3C(=O)C(C)(OC(=O)CCc4ccccc4)C(=O)C=C3C=C2c2ccc(C#N)cc2)cc1 (centres undefined),-15%

(more compounds)
SMILES	VDR inh
CC(=O)Nc1ccc(-c2nc3ccccc3c(=O)o2)cc1	-8%
O=C(O)/C=C/c1cnn(-c2ccccc2)c1	7%
CCCOC(=O)CCCN1C(=O)/C(=C2\SC(=S)N(CCCC(=O)OCCC)C2=O)SC1=S	0%
C=CCNCCCCOc1ccc(Br)cc1C	-6%
Cc1cc(N/N=C/c2ccccc2Cl)nc(NCc2ccccc2)n1	-10%
CCOC(=O)C(=COC(=O)c1ccccc1)NC(=O)Cc1ccccc1	-15%
Cn1c(=O)c2c(ncn2CC(=O)OCC(=O)Nc2ccc(F)cc2F)n(C)c1=O	-1%
O=C(C1=NN(c2ccccc2)C2C(=O)N(c3ccccc3)C(=O)C12)c1ccccc1 (centres undefined)	-18%
COc1cc(NC(=O)Cc2ccc(S(=O)(=O)N3CCOCC3)s2)c(OC)cc1Cl	-18%
COc1ccccc1CNC(=O)CCNS(=O)(=O)c1ccc2c(c1)oc(=O)n2C	8%&1%
O=C(COc1ccc([N+](=O)[O-])cc1Cl)N1CCc2ccccc21	22%
Cc1ccc(CNC(=O)Cn2cc(C(=O)c3ccc(Cl)cc3)c(=O)c3ccc(C)nc32)cc1	2%
O=C(O)CSc1nnc(-c2ccc(O)cc2)o1	12%
Cc1cc(C)n(-c2ccc(C(=O)OCC(=O)Nc3cc(S(C)(=O)=O)ccc3Cl)cc2)n1	30%
CCc1ccc2occ(CC(=O)Nc3c(C(=O)Nc4ccc(Cl)cc4)oc4ccccc34)c2c1	4%
Cc1nn(CC(=O)c2ccc(Br)s2)c(C)c1[N+](=O)[O-]	-5%
COc1cc(C#Cc2c(-c3ccccc3OC)oc3ccccc23)cc(OC)c1	-10%
COc1cccc(C(=O)NCc2nnc(SCC(=O)Nc3nccs3)n2-c2ccccc2)c1	-21%
C#CCN1CC(C)/C(=N/O)CC1C (centres undefined)	-1%
COc1ccc(C(=O)COC(=O)Cc2c[nH]c3ccccc23)c(OC)c1	-17%
O=S(=O)(Cc1noc(-c2ccccc2Cl)n1)c1ccccn1	7%
COc1ccccc1/C=C(\C#N)C(=O)Nc1ccc(S(N)(=O)=O)cc1	24%
CCOCCCn1c(=N)c(S(=O)(=O)c2ccc(C)cc2)cc2c(=O)n3cccc(C)c3nc21	-4%
Cc1oc2c(CN3CCCC3)c(O)ccc2c(=O)c1-c1ccc(Cl)cc1	0%
CCC(Oc1ccccc1)C(=O)N1CCN(c2ccccn2)CC1 (centres undefined)	-9%
COc1ccc(C2C(C#N)=C(C)NC3=C2C(=O)CC(C)(C)C3)c(OC)c1 (centres undefined)	29%
Cc1ccc(S(=O)(=O)NCC(=O)Nc2ccc3c(c2)OCO3)cc1	13%
CCOC(=O)CCc1c(C)c2ccc(OCc3nn[nH]n3)c(C)c2oc1=O	3%
O=C(NCc1ccco1)/C(=C/c1ccc(Br)cc1)NC(=O)c1ccco1	0%

Reprinted at random: six records from the list.
SMILES	VDR inh
COc1ccc(C(=O)COC(=O)Cc2c[nH]c3ccccc23)c(OC)c1	-17%
COc1ccc(C2C(C#N)=C(C)NC3=C2C(=O)CC(C)(C)C3)c(OC)c1 (centres undefined)	29%
O=C(NCc1ccco1)/C(=C/c1ccc(Br)cc1)NC(=O)c1ccco1	0%
O=S(=O)(Cc1noc(-c2ccccc2Cl)n1)c1ccccn1	7%
Cc1oc2c(CN3CCCC3)c(O)ccc2c(=O)c1-c1ccc(Cl)cc1	0%
COc1cc(C#Cc2c(-c3ccccc3OC)oc3ccccc23)cc(OC)c1	-10%

Compound activity (PubChem)
